PV pol inh – inhibitors of poliovirus RNA polymerase binding and polymerization; P03300; % elongation, % (compound at 16.7 µg/mL); poliovirus polymerase elongation, fluorescence polarization; active compounds read low; actives 0.66% (n = 150,000); AID 588519; in the data active = % elongation below about 90%; also: some results filed as inactive read as strong as hits
MbtI inh – inhibitors of Mycobacterium tuberculosis siderophore enzyme MbtI; P9WFX0; purified MbtI enzyme, fluorescence intensity read-out; inhibition, %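 (about 17 µg/mL by stock and volumes)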; actives 0.89% (n = 100,000); AID 493033;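 active = above 50% in both replicates, above 80% if mildly self-fluorescent; inactive = the rest, strongly fluorescent compounds included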;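 also: 0% = mean of negative and 100% = mean of positive controls; one replicate is shown; some compounds called inactive have numbers as strong as hits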
Target sequence (P9WFX0 whole entry, looked up): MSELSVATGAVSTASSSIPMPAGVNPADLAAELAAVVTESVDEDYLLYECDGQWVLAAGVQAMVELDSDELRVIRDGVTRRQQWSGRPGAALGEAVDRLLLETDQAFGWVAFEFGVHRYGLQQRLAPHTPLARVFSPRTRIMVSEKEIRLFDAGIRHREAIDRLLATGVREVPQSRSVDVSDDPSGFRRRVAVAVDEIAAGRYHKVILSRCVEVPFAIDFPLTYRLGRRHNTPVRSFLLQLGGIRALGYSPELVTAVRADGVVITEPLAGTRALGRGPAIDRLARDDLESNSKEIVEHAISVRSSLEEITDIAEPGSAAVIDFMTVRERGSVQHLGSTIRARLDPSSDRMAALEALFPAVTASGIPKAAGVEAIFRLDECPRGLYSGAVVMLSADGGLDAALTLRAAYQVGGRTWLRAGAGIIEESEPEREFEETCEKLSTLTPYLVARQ
Mtb MenB inh – inhibitors of Mycobacterium tuberculosis MenB enzyme; P9WNP5; AID 540299; inhibition, %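 (about 12 µg/mL by stock and volumes)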; MenB enzyme assay, absorbance read-out; some hits fall short of the stated cut; actives 0.43% (n = 100,000);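 active = mean of two replicates above 30%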;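 also: 0% = no compound and 100% = wells with inactive enzyme; the first replicate is given; strong numbers were not always called active; inactives centre near -10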
Target sequence (P9WNP5 whole entry, looked up): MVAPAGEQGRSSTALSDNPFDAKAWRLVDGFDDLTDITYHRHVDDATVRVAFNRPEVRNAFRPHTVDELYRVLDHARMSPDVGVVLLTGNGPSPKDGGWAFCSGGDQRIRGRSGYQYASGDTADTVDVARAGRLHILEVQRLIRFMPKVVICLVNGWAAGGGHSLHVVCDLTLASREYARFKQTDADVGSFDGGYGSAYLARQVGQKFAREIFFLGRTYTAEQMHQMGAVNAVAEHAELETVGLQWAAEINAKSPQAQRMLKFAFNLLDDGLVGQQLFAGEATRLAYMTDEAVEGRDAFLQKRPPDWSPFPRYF
PV pol inh intensity – further read-out of PV pol inh, marked with its call; % elongation; measured here: total intensity read-out; formula for this scale not given here;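 total fluorescence in place of polarization; lower means less elongation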
An asterisk follows results filed as active; / = no result given; & = joins results of further samples.

SMILES	PV pol inh	PV pol inh intensity	MbtI inh	Mtb MenB inh
CCCCNS(=O)(=O)c1ccc2c(c1)CCN2C(=O)CC	103	104	-3	-17
CCCCS(=O)c1sc2nc(-c3cccs3)cc(-c3ccccc3)c2c1N (stereo not given)	102	100	60	-51
CC(C)N(C(=O)CSc1nnc(Cc2csc(Nc3ccccc3)n2)o1)C(C)C	102	103	11	-25
O=C(Nc1ccc2nc3n(c(=O)c2c1)CCCC3)c1ccccn1	103	105	6	0
O=C(CN1C(=O)c2cccc3cccc1c23)N1CCc2ccccc21	99	101	-5	-4
CCOc1ccc(-n2c(SCC(=O)OC3CCS(=O)(=O)C3)nc3ccccc32)cc1 (stereo not given)	105	97	10	-1
CCOC(=O)c1sc2ncnc(OCC)c2c1C	101	104	-2	2
COC(=O)c1ccc(COC(=O)c2ccc(C)cc2C)cc1	100	104	2	/
Cc1sc(-c2ccc(-c3csnn3)cc2)nc1-c1ccccc1	97	97	-10	-16
Cc1ccc(N2CC(C(=O)Nc3c(C)cccc3C)CC2=O)cc1 (stereo not given)	106	103	/	-16
O=C(c1ccc2ccccc2c1)C12CN3CN(CN(C3)C1)C2	104	101	22	-55
O=C(NCc1cccnc1)c1c[nH]c2cc3c(cc2c1=O)OCCO3	102	102	9	1
Cc1ccnc(N=Cc2c(C)[nH]n(-c3ccccc3)c2=O)c1	100	104	4	-55
C=Cn1c2ccccc2c2nc3ccccc3nc21	105	107	-12	-23
O=C(CSc1ccc2ccccc2c1)Nc1ccccc1N1CCOCC1	102	103	-1	/
Oc1ccccc1Oc1cnn(-c2ccccc2)c1-c1ccccc1	105	104	121	/
CCc1ccc(-c2csc3ncn(CC)c(=O)c23)cc1	105	104	-16	-31
O=C(OCc1cc2c(cc1Br)OCO2)C1CC2CCCC(C1)C2=O (stereo not given)	103	107	-6	-3
C=CCOc1ccc(C(=O)NC2CC(C)(C)NC(C)(C)C2)cc1	104	102	-11	-16
Cn1nc(C(=O)NC2CCCc3ccccc32)c2c1-c1ccccc1SC2 (stereo not given)	105	106	-6	-34
O=C(O)c1ccccc1-c1nc2ccccc2s1	100	106	1	/
COCc1cc(C)[nH]c(=O)c1C#N	103	104	94	6
COc1ccc2cc3cc(C(=O)NCC4COc5ccccc5O4)sc3nc2c1 (stereo not given)	104	106	-4	-18
CCCCNC(=O)c1cc(-c2ccc3c(c2)OCO3)on1	101	103	-4	-3
O=C(NCCO)c1nc(NCCO)c2ccccc2n1	102	106	-8	3
CCOC(=O)c1sc2nccc(N(C)C)c2c1N	102	103	22	-53
Cc1cc(SCC(=O)O)n2c(nc3ccccc32)c1C#N	96	99	-13	-58
Cc1ccsc1C(=O)N(C)Cc1ccc2c(c1)OCCO2	102	103	23	-15
CCOc1ccc(NC(=O)CS(=O)(=O)c2ccccc2)cc1	100	102	-1	-19
CCOC(=O)N1CCN(C(=O)c2ccc3c(=O)n(CCc4ccc(OC)c(OC)c4)c(=O)[nH]c3c2)CC1	101	102	-19	-37
O=c1oc2ccccc2n1CCOc1ccccc1Cl	100	102	-1	-4
CCOC(=O)Cn1c(=O)oc2ccc(C)cc21	104	109	-8	-10
CCN(CC)S(=O)(=O)c1ccc(Cl)c(C(=O)N2CCCCCC2)c1	102	95	-3	/
Cn1cc(CCC(=O)N2CCc3ccccc32)c2ccccc21	105	102	-5	-34
COc1ccc2cc(C(C)C(=O)Nc3ccc(OC(F)(F)F)cc3)ccc2c1 (stereo not given)	104	106	7	-9
NNC(=O)Oc1ccccc1	99	96	-8	-9
NC(=O)N/N=C/c1ccc(Oc2ccccc2)cc1	101	96	7	-14
O=C(O)CCSC(=S)N1CCCC1	99	97	16	-23
COc1ccc(/C=C2\CCc3ccccc3C2=O)cc1Cn1cccn1	103	103	-9	-21
C=Cn1c2ccccc2c2cc(I)ccc21	98	104	-1	-48

One compound at a time (already shown):
CCOC(=O)c1sc2nccc(N(C)C)c2c1N reads PV pol inh: 102; PV pol inh intensity: 103; MbtI inh: 22; Mtb MenB inh: -53
NNC(=O)Oc1ccccc1 reads PV pol inh: 99; PV pol inh intensity: 96; MbtI inh: -8; Mtb MenB inh: -9
CCN(CC)S(=O)(=O)c1ccc(Cl)c(C(=O)N2CCCCCC2)c1 reads PV pol inh: 102; PV pol inh intensity: 95; MbtI inh: -3; Mtb MenB inh: /

Further results follow:
SMILES	PV pol inh	PV pol inh intensity	MbtI inh	Mtb MenB inh
CCCCC(=O)Nc1cccc2nc(C)ccc12	99	101	-73	-10
Cc1ccc(C(=O)Nc2ccc(Cl)cn2)cc1	104	107	/	-5
N#Cc1c(-c2ccco2)cc(-c2ccccc2)nc1SCCN1C(=O)c2ccccc2C1=O	103	102	-3	-6
Cc1ccnc(SCC(=O)O)n1	104	110	-4	0
C=CC[N+]1(CC#Cc2ccccc2)CCCCC1	100	98	12	3
CCCCc1ccc(NC(=O)Nc2ccc(N3CCN(C)CC3)cc2)c(C)c1	99	99	17	22
S=c1oc2ccccc2n1CNc1ccccn1	98	100	99	-3
O=C(C(c1ccccc1)c1ccccc1)N1CCCCC1	101	103	-17	-56
COc1ccc(N2C(=O)c3ccccc3NC2c2ccc3c(c2)OCO3)cc1 (stereo not given)	102	101	15	-9
CCc1cccc(NC(=O)CSc2nnc(Cc3ccccc3)n2N)c1	101	98	-2	0
O=C(NCCc1ccccc1)C1CCCN(c2ncnc3c2sc2cccc(F)c23)C1 (stereo not given)	103	101	-11	2
CCCn1nc(NC(=O)c2cccc(Cl)c2)c2cc3cc(C)ccc3nc21	103	102	-6	-12
Cc1cc(C(=O)Nc2cccc(Cl)c2)on1	102	105	4	1
Cn1ccnc1C(=O)c1cc(SCC(=O)Nc2ccc3c(c2)OCO3)nc2ccccc12	102	107	8	-9
Cc1cccc(N)c1-c1c(C)cccc1N	100	103	-28	6
CCCc1oc(C(=O)O)cc1CN1CCOCC1	103	104	-9	-16
O=C(N/N=C/c1ccccc1F)c1ccccc1	103	101	33	-11
CN(C)CC[C@H](c1ccc(Cl)cc1)c1ccccn1	101	101	-15	1
COc1ccc(C(=O)Nc2ccc3[nH]ccc3c2)cc1	99	105	2	15
CCn1c(=O)c2cc(C(=O)NCCc3ccsc3)sc2c2ccccc21	104	104	25	-12

Random excerpt: three records from the list, in no set order.
SMILES	PV pol inh	PV pol inh intensity	MbtI inh	Mtb MenB inh
Cc1ccc(C(=O)Nc2ccc(Cl)cn2)cc1	104	107	/	-5
S=c1oc2ccccc2n1CNc1ccccn1	98	100	99	-3
CCCn1nc(NC(=O)c2cccc(Cl)c2)c2cc3cc(C)ccc3nc21	103	102	-6	-12

The list goes on:
SMILES	PV pol inh	PV pol inh intensity	MbtI inh	Mtb MenB inh
CCOC(=O)c1sc(-c2ccc(F)cc2)cc1N	105	109	-52	-21
Cc1cccc(OCCCC(=O)O)c1C	104	100	-8	-81
Cc1nc2c(=O)oc3ccccc3c2o1	104	102	-12	-27
O=C(NC(=S)N1CCc2ccccc21)C1CCCC1	100	101	36	-21
COc1ccccc1C(C)N (stereo not given)	100	105	9	16
O=C1N/C(=C/c2ccc(N3CCCC3)cc2)C(=O)N1c1ccccc1	98	104	8	-38
O=C(NCc1cccs1)c1cc(-c2ccccc2)nc2ccccc12	105	108	3	-27
Cc1nnc(C)n1/N=C\c1cccc(OCc2ccccc2)c1	104	103	10	-5
O=C1C(Oc2ccccc2)C(c2cccs2)N1Cc1ccc2c(c1)OCO2 (stereo not given)	103	101	-9	6
O=S(=O)(Nc1ccc(C(F)(F)F)cc1)c1cnc[nH]1	102	101	-6	-20
CCOc1ccc(S(=O)(=O)N(C)c2ccc(OCC(=O)NCC3CCCO3)cc2)cc1 (stereo not given)	105	107	-24	-21
CCCCn1c(CNC=O)nc2ccccc21	98	101	-1	3
Nc1no[n+]([O-])c1-c1ccccc1	105&102	105&105	21	-7&-1
CC1SC(=S)N(c2ccc(N(C)C)cc2)C1=O (stereo not given)	101	101	11	-17
COc1ccc(C2OCC(C)(C(=O)O)CO2)cc1 (stereo not given)	108	107	/	-1
COc1ccc(NC(=S)NCCCC2C=NNC2=O)cc1 (stereo not given)	102	107	-10	19
CCCN(CCO)C1CCCC(C)C1 (stereo not given)	102	102	0	-4
CC(C)(C)N=C1NN=C(c2ccc(Cl)c(Cl)c2)CS1	102	100	-10	-24
Cc1nnc(SCC(=O)c2ccc3[nH]c(=O)oc3c2)n1Cc1ccccc1	103	96	10	14
COc1ccc(Cn2c(C)c(CNCc3cccs3)c(C(=O)O)c2C)cc1	99	103	3	-24
CC12CC3CC(C)(C1)CC(C(=O)NO)(C3)C2	101	104	-6	-49
COc1ccc(N2CCN(C(=O)CNC(C)C3CC4CCC3C4)CC2)cc1 (stereo not given)	94	83	8	-52
c1ccc(Cn2nnc3c(N4CCCC4)ncnc32)cc1	102	101	-1	-5
O=S(=O)(NC1CCCCC1)c1ccc(Cl)s1	100	100	1	1
CCS(=O)(=O)N1CCc2cc(C(=O)CSc3nnc(COc4ccc(F)cc4)o3)ccc21	103	108	-6	-4
O=C(c1cccs1)N1CCN(c2ccc(Cl)cc2)CC1	102	103	-3	-26
O=C(Oc1ccc(O)cc1)C12CC3CC(CC(C3)C1)C2	97	101	97*	-52
CC12CCC(C/C1=N\OC(=O)O)C2(C)C (stereo not given)	104	103	-3	-20
CN1C/C(=N\S(=O)(=O)c2ccccc2)N(C)C1=O	99	100	0	-22
O=C(COCC1CCCN2CCCCC12)Oc1ccccc1 (stereo not given)	103	117	/	-19
Cc1cc(Oc2ccccc2)nc(-c2ccc(Br)cc2)n1	106	110	/	-19
CN1CCN(C(=O)/C=C\C(=O)O)CC1	101	102	4	27
COC(=O)c1cc(S(=O)(=O)Nc2cccc(-c3cnco3)c2)oc1C	105	110	-17	0
CN(C)C(Cc1ccc(C#N)cc1)C(=O)c1ccccc1 (stereo not given)	107	99	29	7
COc1ccccc1Nc1ncc(C(=O)N2CCN(c3ccc(F)cc3)CC2)c2ccccc12	100	101	-1	-1
CCOC(=O)c1cccc(NC(=O)CS(=O)(=O)Cc2nc(-c3ccc(C)cc3)oc2C)c1	101	104	-3	0
Cc1cc(C)nc(NNc2ccccc2)n1	101	105	8	-19
CCOC(=O)CN1C(=O)S/C(=C/c2cc(OC)c(O)cc2Br)C1=O	123	130	-5	-89
O=C(O)CCCOc1cccc(Br)c1	104	102	-5	/
Cc1ccsc1/C=C1/C(=O)/C(=C/c2sccc2C)C2CCC1N2C	99	103	-4	-56

Individual results from the list:
Cc1ccsc1/C=C1/C(=O)/C(=C/c2sccc2C)C2CCC1N2C in PV pol inh has 99
O=C(Oc1ccc(O)cc1)C12CC3CC(CC(C3)C1)C2 in MbtI inh has 97*
COc1ccc(N2CCN(C(=O)CNC(C)C3CC4CCC3C4)CC2)cc1 (stereo not given) in PV pol inh intensity has 83

Later entries
SMILES	PV pol inh	PV pol inh intensity	MbtI inh	Mtb MenB inh
c1ccc(CC2CCN(CCCNc3nc4ccccc4n4nnnc34)CC2)cc1	100	107	8	5
CCC1Oc2ccc(Cl)cc2N(CC(=O)NCCc2ccccc2)C1=O (stereo not given)	100	103	1	-20
Cc1sc2ncnc(N3CCN(Cc4ccccc4)CC3)c2c1-c1ccc(F)cc1	110	108	/	-5
O=C(NO)c1csc(-c2cccnc2)n1	100	100	4	10
CC(=O)NC(=O)/C(=C(/C)Nc1ccccc1)c1ccccc1	103	111	0	/
Cn1ccc(-c2ccccc2)n1	103	103	-13	1
O=C1CCCC2=C1C(c1cccs1)C1C(=O)c3ccccc3C1=N2 (stereo not given)	72*	50*	/	-15
O=C(CN1C(=O)S/C(=C\c2ccccc2)C1=O)Nc1nccs1	105	102	1	-19
CCOc1ccc(-n2c(O)c(C=NCCCN3CCOCC3)c3ccccc3c2=O)cc1	104	110	-14	-8
Cc1ccc(C)n1-c1ccc(C(=O)NNC2=NCCC2)s1	103	101	15	-25
O=C(CCS(=O)(=O)c1ccccc1)Nc1ccc2c(c1)OCCO2	102	105	-21	-20
CN(Cc1cccs1)S(=O)(=O)c1ccc2c(c1)OCCO2	100	106	6	-14
Cc1nc2c3ccccc3[nH]c(=O)n2n1	/	/	-10	-4
O=C(Cn1c(=O)oc2ccccc21)NCCN1CCc2ccccc2C1	100	102	8	-9
COc1ccc(/C(N)=C/C2=NC(C)(C)CO2)cc1	105	108	/	-10
Fc1ccccc1/C=C/c1ccncc1	99	98	2	-11
Cc1cc(SCC(=O)c2ccccc2)nc(=O)[nH]1	108	106	7	-16
N#C/C=C/N(C#N)c1ccccc1	106	111	/	-7
CN(C(=O)CSc1nc(-c2ccccc2)cs1)C1CCS(=O)(=O)C1 (stereo not given)	98	93	16	-42
O=C1OCCC1Sc1nnc(-c2ccccc2)n1-c1ccc(Cl)cc1 (stereo not given)	100	95	-18	-35
C=CCN(CC=C)S(=O)(=O)c1ccc(C(=O)Nc2nnc(-c3cc(C)ccc3C)o2)cc1	101	105	1	-18
COc1cc2c(C(=O)N3CCC4(CC3)OCCO4)cn(CC(C)C)c(=O)c2cc1OC	98	100	2	6
CC(Sc1cccc(C(F)(F)F)c1)C(=O)NC(N)=O (stereo not given)	100	108	2	-2
O=C(CN1C(=O)/C(=C/c2ccccc2)Sc2ccccc21)NC1CCCC1	102	102	8	-23

A section of the results above, as a working copy:
SMILES	PV pol inh	PV pol inh intensity	MbtI inh	Mtb MenB inh
CN(C(=O)CSc1nc(-c2ccccc2)cs1)C1CCS(=O)(=O)C1 (stereo not given)	98	93	16	-42
O=C1OCCC1Sc1nnc(-c2ccccc2)n1-c1ccc(Cl)cc1 (stereo not given)	100	95	-18	-35
C=CCN(CC=C)S(=O)(=O)c1ccc(C(=O)Nc2nnc(-c3cc(C)ccc3C)o2)cc1	101	105	1	-18
